AF4-AF9 inh – inhibitors of human MLL-AF4/AF9 interaction; P42568; AlphaScreen, biotin-AF4 peptide binding to FLAG-AF9; actives 0.47% (n = 350,000); AID 651704; inhibition, % at 10 µM;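 active = every replicate reaching a set inhibition limit, whatever the replicate mean, cut at about 25% in these data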;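 note: 0% = plate neutral control median and 100% = total signal loss; the record names both 10 and 1 µM as test concentration; the first replicate is given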
Target sequence (P42568 whole entry, looked up): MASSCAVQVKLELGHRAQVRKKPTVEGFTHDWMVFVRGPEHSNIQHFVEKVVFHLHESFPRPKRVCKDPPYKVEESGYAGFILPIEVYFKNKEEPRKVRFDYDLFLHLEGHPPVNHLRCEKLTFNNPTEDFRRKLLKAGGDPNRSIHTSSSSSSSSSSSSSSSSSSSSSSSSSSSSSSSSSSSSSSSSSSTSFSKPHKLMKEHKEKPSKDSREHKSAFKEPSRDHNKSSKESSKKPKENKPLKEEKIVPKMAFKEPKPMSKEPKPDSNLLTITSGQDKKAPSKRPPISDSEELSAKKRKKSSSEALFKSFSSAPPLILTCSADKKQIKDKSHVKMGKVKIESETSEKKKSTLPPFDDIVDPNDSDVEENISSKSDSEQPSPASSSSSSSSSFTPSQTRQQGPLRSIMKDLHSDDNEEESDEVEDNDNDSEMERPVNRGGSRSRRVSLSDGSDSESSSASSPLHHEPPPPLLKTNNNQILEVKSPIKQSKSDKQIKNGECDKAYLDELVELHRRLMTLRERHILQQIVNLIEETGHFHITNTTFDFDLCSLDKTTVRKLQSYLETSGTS
FGF22 binding – binders of recombinant human FGF22 by thermal shift | actives 1.5% (n = 340,000) | SYPRO orange fluorescence; percent of sucrose octasulfate shift, DMSO zero | calls only at 9.99 µM | Q9HCT0;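 active = melting point raised past a set limit in the mean and every replicate; three in four hits are not shown here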
Target sequence (Q9HCT0 whole entry, looked up): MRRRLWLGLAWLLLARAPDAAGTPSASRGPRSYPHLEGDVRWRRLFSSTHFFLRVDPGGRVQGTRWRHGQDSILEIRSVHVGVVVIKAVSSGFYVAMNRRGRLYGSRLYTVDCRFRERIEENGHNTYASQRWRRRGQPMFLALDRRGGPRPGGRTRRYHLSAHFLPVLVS
Active calls of the source: *. An excerpt; the hit share may differ from the screen's.

C=CCOC(=O)[C@@H]1[C@H]2C(=O)O[C@H](c3ccccc3)[C@H](c3ccccc3)N2[C@H](c2ccc(OCCOC(=O)[C@@H]3C[C@@H]4C(=O)N[C@@H](CCCCNC(C)=O)C(=O)N4[C@@H]3c3ccc(O)cc3)cc2)[C@@]12C(=O)Nc1ccc(I)cc12 was read as AF4-AF9 inh -2.5 and FGF22 binding inactive.
CC(C)C#Cc1ccc2c(c1)O[C@@H](CN(C)Cc1ccccc1)[C@@H](C)CN([C@H](C)CO)S2(=O)=O was read as AF4-AF9 inh 3.0 and FGF22 binding inactive.
Screening COc1cccc(N)c1 returned AF4-AF9 inh -3.6 and FGF22 binding inactive.
`C[C@@H]1CN([C@H](C)CO)S(=O)(=O)c2ccc(C3=CCCCC3)cc2O[C@@H]1CN(C)Cc1ccccc1` gave AF4-AF9 inh 19 and FGF22 binding inactive.
Screening COc1ccc(NC(=O)Nc2ccc3c(c2)C(=O)N([C@H](C)CO)C[C@@H](C)[C@H](CN(C)C(=O)C2CCCCC2)OCCCC[C@H](C)O3)cc1 returned AF4-AF9 inh -5.4 and FGF22 binding inactive.
For O=C(CN1CCOCC1)N1CC[C@H]2[C@H](CO)Nc3ccc(-c4ccc(F)cc4)cc3[C@H]21 the results were AF4-AF9 inh -2.6 and FGF22 binding inactive.
Screening C[C@@H]1CCCCO[C@H](CN(C)C(=O)Nc2ccc(F)cc2)[C@@H](C)CN([C@@H](C)CO)C(=O)c2cc(NS(=O)(=O)c3cn(C)cn3)ccc2O1 returned AF4-AF9 inh -0.7 and FGF22 binding inactive.
CO[C@H]1CN(C)C(=O)c2cc(NC(=O)C3CCOCC3)ccc2OC[C@H](C)N(Cc2cccnc2)C[C@@H]1C was read as AF4-AF9 inh -2.7 and FGF22 binding inactive.
`C[C@@H]1CCCCO[C@H](CN(C)Cc2ccc3c(c2)OCO3)[C@H](C)CN([C@@H](C)CO)C(=O)c2cc(NC(=O)CCCN(C)C)ccc2O1` gave AF4-AF9 inh 0.0 and FGF22 binding inactive.
For C[C@H](O)C#Cc1ccc2c(c1)O[C@H](CN(C)C(=O)Cc1ccccn1)[C@@H](C)CN([C@@H](C)CO)S2(=O)=O the results were AF4-AF9 inh -3.9 and FGF22 binding inactive.
COCC#Cc1ccc([C@@H]2[C@H]3CN(S(=O)(=O)c4ccccc4C)CCCCN3[C@H]2CO)cc1 was read as AF4-AF9 inh -7.2 and FGF22 binding inactive.
Screening C[C@H](CO)N1C[C@H](C)[C@@H](CN(C)CC2CCCCC2)OCCCC[C@H](C)Oc2ccc(NS(=O)(=O)c3ccc(F)cc3)cc2C1=O returned AF4-AF9 inh 2.9 and FGF22 binding inactive.
For COc1ccc(NC(=O)Nc2cccc3c2O[C@H](CN(C)C(=O)Nc2ccc(F)cc2)[C@H](C)CN([C@H](C)CO)C3=O)cc1 the results were AF4-AF9 inh 0.5 and FGF22 binding inactive.
For CCOC(=O)N1CCN(C(=O)C[C@H]2C[C@@]3(C(=O)OC)C(=C[C@H](C4CCCC4)O[C@@H]3C)N(Cc3ccccc3)C2=O)CC1 the results were AF4-AF9 inh 0.8 and FGF22 binding inactive.
Screening COc1ccc(CN2C[C@@H](C)[C@@H](OC)CN(C)C(=O)c3ccc(NC(C)=O)cc3OC[C@H]2C)cc1 returned AF4-AF9 inh 2.2 and FGF22 binding inactive.
C[C@H]1CCCCO[C@@H](CN(C)Cc2ccncc2)[C@@H](C)CN([C@@H](C)CO)C(=O)c2cc(NS(=O)(=O)c3ccccc3)ccc2O1 was read as AF4-AF9 inh -10 and FGF22 binding inactive.
For C[C@@H]1CN([C@@H](C)CO)C(=O)c2cc(NC(=O)Nc3ccc4c(c3)OCO4)ccc2O[C@@H](C)CCCCO[C@@H]1CN(C)C(=O)Cc1ccccc1 the results were AF4-AF9 inh 8.3 and FGF22 binding inactive.
`O=C(C[C@@H]1CC[C@@H](NC(=O)Cc2cccnc2)[C@@H](CO)O1)NCc1ccc2c(c1)OCO2` gave AF4-AF9 inh -17 and FGF22 binding inactive.
Cc1noc(C)c1S(=O)(=O)Nc1ccc2c(c1)C(=O)N([C@@H](C)CO)C[C@H](C)[C@H](CN(C)Cc1ccc(C(F)(F)F)cc1)O2 was read as AF4-AF9 inh 2.9 and FGF22 binding inactive.
C/C=C/c1ccc2c(c1)O[C@@H](CN(C)C(=O)c1ccc(F)cc1)[C@H](C)CN([C@@H](C)CO)S2(=O)=O was read as AF4-AF9 inh -0.3 and FGF22 binding inactive.
Screening CCCNC(=O)N1C[C@H](C)[C@H](OC)CN(C)C(=O)c2ccc(NC(C)=O)cc2OC[C@@H]1C returned AF4-AF9 inh -1.7 and FGF22 binding inactive.
Screening C[C@H]1CCCCO[C@@H](CN(C)Cc2ccncc2)[C@@H](C)CN([C@@H](C)CO)C(=O)c2cc(NC(=O)c3ccccc3)ccc2O1 returned AF4-AF9 inh -5.6 and FGF22 binding inactive.
`CCNC(=O)C[C@@H]1CC[C@@H]2[C@H](COc3ccc(NC(=O)Nc4cccc(C)c4)cc3C(=O)N2C)O1` gave AF4-AF9 inh 0.6 and FGF22 binding inactive.
`O=C(C[C@@H]1CC[C@H]2[C@@H](COC[C@@H](O)CN2Cc2ccc(Cl)cc2)O1)Nc1nccs1` gave AF4-AF9 inh 3.3 and FGF22 binding inactive.
CN(C)C(=O)[C@H]1[C@H](CO)[C@H]2Cn3c(ccc(-c4ccccc4)c3=O)[C@@H]1N2CC1CCCC1 was read as AF4-AF9 inh 0.8 and FGF22 binding inactive.
O=C(CC1CC1)N1CC(=O)N2[C@H](CO)[C@H](c3ccc(-c4cccnc4)cc3)[C@H]2C1 was read as AF4-AF9 inh -0.3 and FGF22 binding inactive.
`Cc1ccc(-c2cnc3c(c2)C(=O)N([C@H](C)CO)C[C@H](C)[C@H](CN(C)C(=O)CN(C)C)O3)cc1` gave AF4-AF9 inh -0.3 and FGF22 binding inactive.
`COc1ccc(S(=O)(=O)Nc2cccc3c2O[C@@H](CN(C)C(=O)Nc2cccc4ccccc24)[C@H](C)CN([C@@H](C)CO)C3=O)cc1` gave AF4-AF9 inh -0.8 and FGF22 binding inactive.
`CN1C(=O)c2cc(NC(=O)Nc3ccc(F)cc3)ccc2OC[C@@H]2O[C@H](CC(=O)NC3CCC3)CC[C@@H]21` gave AF4-AF9 inh 0.8 and FGF22 binding inactive.
Screening C[C@@H]1CN([C@H](C)CO)C(=O)c2cc(NC(=O)CCCN(C)C)ccc2O[C@H]1CN(C)S(=O)(=O)c1cccs1 returned AF4-AF9 inh 0.3 and FGF22 binding inactive.
O=C(c1ccc(F)cc1)N1CCCCN2[C@H](CO)[C@@H](c3ccc(-c4ccccc4)cc3)[C@@H]2C1 was read as AF4-AF9 inh -3.7 and FGF22 binding inactive.
For COc1ccc(C#Cc2cnc3c(c2)C(=O)N([C@H](C)CO)C[C@H](C)[C@H](CN(C)CC2CCCC2)O3)cc1 the results were AF4-AF9 inh 4.0 and FGF22 binding inactive.
For CCCNC(=O)C[C@H]1CC[C@@H]2[C@H](COC[C@H](O)CN2S(=O)(=O)c2ccccc2F)O1 the results were AF4-AF9 inh 11 and FGF22 binding inactive.
`C[C@H](CO)N1C[C@H](C)[C@@H](CN(C)CC2CCCC2)Oc2cc(C#CC3CC3)ccc2S1(=O)=O` gave AF4-AF9 inh 10 and FGF22 binding inactive.
For C[C@@H]1CN([C@H](C)CO)C(=O)c2cccc(NS(C)(=O)=O)c2O[C@@H]1CN(C)C(=O)NC1CCCCC1 the results were AF4-AF9 inh 1.1 and FGF22 binding inactive.
For C[C@@H]1CN([C@H](C)CO)C(=O)c2cc(NC(=O)CCCN(C)C)ccc2O[C@@H]1CN(C)Cc1ccc(-c2ccccc2)cc1 the results were AF4-AF9 inh 9.1 and FGF22 binding inactive.
`CCC(=O)N1[C@H](C#N)[C@@H](c2ccccc2-c2cccc(C)c2)[C@H]1CO` gave AF4-AF9 inh -0.4 and FGF22 binding inactive.
For Cc1ccc(S(=O)(=O)Nc2ccc3c(c2)C(=O)N([C@@H](C)CO)C[C@H](C)[C@H](CN(C)C(=O)Nc2c(C)noc2C)OCCCC[C@@H](C)O3)cc1 the results were AF4-AF9 inh -0.2 and FGF22 binding inactive.
`C[C@@H]1CN([C@H](C)CO)C(=O)Cc2cc(NS(=O)(=O)c3ccc(F)cc3)ccc2O[C@@H]1CN(C)C(=O)Nc1ccccc1` gave AF4-AF9 inh -2.6 and FGF22 binding inactive.
For Cc1noc(C)c1NC(=O)N(C)C[C@@H]1Oc2ccc(NC(=O)NC3CCCCC3)cc2C(=O)N([C@@H](C)CO)C[C@H]1C the results were AF4-AF9 inh -4.1 and FGF22 binding inactive.

No new results follow: entries from further up.
Screening CCCNC(=O)N1C[C@H](C)[C@H](OC)CN(C)C(=O)c2ccc(NC(C)=O)cc2OC[C@@H]1C returned AF4-AF9 inh -1.7 and FGF22 binding inactive.
Screening C[C@H]1CCCCO[C@@H](CN(C)Cc2ccncc2)[C@@H](C)CN([C@@H](C)CO)C(=O)c2cc(NC(=O)c3ccccc3)ccc2O1 returned AF4-AF9 inh -5.6 and FGF22 binding inactive.
`CCNC(=O)C[C@@H]1CC[C@@H]2[C@H](COc3ccc(NC(=O)Nc4cccc(C)c4)cc3C(=O)N2C)O1` gave AF4-AF9 inh 0.6 and FGF22 binding inactive.
`O=C(C[C@@H]1CC[C@H]2[C@@H](COC[C@@H](O)CN2Cc2ccc(Cl)cc2)O1)Nc1nccs1` gave AF4-AF9 inh 3.3 and FGF22 binding inactive.
CN(C)C(=O)[C@H]1[C@H](CO)[C@H]2Cn3c(ccc(-c4ccccc4)c3=O)[C@@H]1N2CC1CCCC1 was read as AF4-AF9 inh 0.8 and FGF22 binding inactive.
O=C(CC1CC1)N1CC(=O)N2[C@H](CO)[C@H](c3ccc(-c4cccnc4)cc3)[C@H]2C1 was read as AF4-AF9 inh -0.3 and FGF22 binding inactive.
`Cc1ccc(-c2cnc3c(c2)C(=O)N([C@H](C)CO)C[C@H](C)[C@H](CN(C)C(=O)CN(C)C)O3)cc1` gave AF4-AF9 inh -0.3 and FGF22 binding inactive.
`COc1ccc(S(=O)(=O)Nc2cccc3c2O[C@@H](CN(C)C(=O)Nc2cccc4ccccc24)[C@H](C)CN([C@@H](C)CO)C3=O)cc1` gave AF4-AF9 inh -0.8 and FGF22 binding inactive.

(cont.)
CC(C)NC(=O)N(C)C[C@@H]1Oc2ccc(NC(=O)CCC(F)(F)F)cc2CC(=O)N([C@@H](C)CO)C[C@H]1C was read as AF4-AF9 inh -5.8 and FGF22 binding inactive.
Screening C[C@@H]1CN([C@@H](C)CO)C(=O)c2cc(C#CC3(O)CCCC3)cnc2O[C@H]1CN(C)C(=O)CC1CC1 returned AF4-AF9 inh -3.5 and FGF22 binding inactive.
C[C@@H]1CN([C@@H](C)CO)C(=O)c2cc(-c3cccnc3)cnc2O[C@H]1CN(C)C(=O)Nc1ccc(C(F)(F)F)cc1 was read as AF4-AF9 inh -0.5 and FGF22 binding inactive.
O=C(C[C@H]1CC[C@H](NC(=O)Nc2cc(F)ccc2F)[C@@H](CO)O1)NCc1ccncn1 was read as AF4-AF9 inh -2.0 and FGF22 binding inactive.
C[C@@H]1CN([C@@H](C)CO)C(=O)c2cccc(NC(=O)c3ccncc3)c2O[C@@H]1CN(C)C was read as AF4-AF9 inh -1.2 and FGF22 binding inactive.
`CC(C)CC#Cc1ccc2c(c1)O[C@@H](CN(C)C(=O)c1ccccc1F)[C@@H](C)CN([C@H](C)CO)S2(=O)=O` gave AF4-AF9 inh -0.2 and FGF22 binding inactive.
COC(=O)[C@]1(Cc2ccccc2)NC=C(C(=O)c2ccccc2)[C@@H]1c1cccc(OC)c1 was read as AF4-AF9 inh -2.6.
For CC(C)NC(=O)N(C)C[C@@H]1OCCCC[C@@H](C)Oc2ccc(NS(=O)(=O)c3ccc(Cl)cc3)cc2C(=O)N([C@@H](C)CO)C[C@@H]1C the results were AF4-AF9 inh 2.2 and FGF22 binding inactive.
For CN1c2ccc(-c3cccc(C#N)c3)cc2[C@@H]2[C@@H](CCN2C(=O)CN2CCOCC2)[C@@H]1CO the results were AF4-AF9 inh -7.6 and FGF22 binding inactive.
C[C@@H]1CN([C@H](C)CO)C(=O)c2cc(NC(=O)CCCN(C)C)ccc2O[C@@H]1CN(C)CC1CCCCC1 was read as AF4-AF9 inh -1.7 and FGF22 binding inactive.
Screening CCCNC(=O)N[C@@H]1CC[C@H](CCn2cc(C3CC3)nn2)O[C@@H]1CO returned AF4-AF9 inh -0.1 and FGF22 binding inactive.
`COc1ccc2c3c(n(C)c2c1)[C@@H](CO)NCC31CCN(C(=O)c2cccc(F)c2)CC1` gave AF4-AF9 inh 4.0 and FGF22 binding inactive.
COc1ccc(NC(=O)N2C[C@H](O)COC[C@H]3O[C@@H](CC(=O)N4CCCCC4)CC[C@@H]32)cc1 was read as AF4-AF9 inh -0.4 and FGF22 binding inactive.
C[C@H](CO)N1C[C@H](C)[C@@H](CN(C)Cc2ccc(-c3ccccc3)cc2)Oc2ccc(NC(=O)Nc3ccccc3)cc2C1=O was read as AF4-AF9 inh -2.8 and FGF22 binding inactive.
`O=C(C1CCOCC1)N1CC(=O)N2[C@H](CO)[C@H](c3ccc(C#CC4CCCCC4)cc3)[C@H]2C1` gave AF4-AF9 inh 6.1 and FGF22 binding inactive.
For C[C@@H]1CN([C@@H](C)CO)C(=O)Cc2cc(NC(=O)Nc3ccc4c(c3)OCO4)ccc2O[C@H]1CN(C)Cc1ccc(Oc2ccccc2)cc1 the results were AF4-AF9 inh 17 and FGF22 binding inactive.
C[C@H](CO)N1C[C@H](C)[C@H](CN(C)S(=O)(=O)c2ccc(Cl)cc2)Oc2ccc(NC(=O)Nc3ccc(F)cc3)cc2C1=O was read as AF4-AF9 inh -1.0 and FGF22 binding inactive.
COc1ccc2c3c(n(C)c2c1)[C@H](CO)N(C(=O)c1ccc(F)cc1)CC31CCN(C)CC1 was read as AF4-AF9 inh -2.7 and FGF22 binding inactive.

Compound activity: PubChem BioAssay, Broad Institute
